Screening data (PubChem BioAssay)
hNpr1 antagonist = blocks ANP-stimulated signaling of human Npr1 receptor; Potency, µM (top dose mostly 46.3 µM), without a hit: top-dose activity change, negative = inhibition, most hits filed as inhibitors; HEK293 hNpr1 GloSensor cGMP, ANP-stimulated luminescence; AID 1347048; P16066; hit rate 1.6% among 76,000; active = well fitted inhibition curve with a large enough effect; inconclusive = small, poorly fitted or top-dose-only effect; inactive = no such curve, though single readings can be large or run the other way;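 also: nearly all actives have a fitted effect of over 60% in size; nearly all hits also lower the signal before the agonist is added; a reference antagonist and vehicle were the controls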
Target sequence (P16066 whole entry, looked up): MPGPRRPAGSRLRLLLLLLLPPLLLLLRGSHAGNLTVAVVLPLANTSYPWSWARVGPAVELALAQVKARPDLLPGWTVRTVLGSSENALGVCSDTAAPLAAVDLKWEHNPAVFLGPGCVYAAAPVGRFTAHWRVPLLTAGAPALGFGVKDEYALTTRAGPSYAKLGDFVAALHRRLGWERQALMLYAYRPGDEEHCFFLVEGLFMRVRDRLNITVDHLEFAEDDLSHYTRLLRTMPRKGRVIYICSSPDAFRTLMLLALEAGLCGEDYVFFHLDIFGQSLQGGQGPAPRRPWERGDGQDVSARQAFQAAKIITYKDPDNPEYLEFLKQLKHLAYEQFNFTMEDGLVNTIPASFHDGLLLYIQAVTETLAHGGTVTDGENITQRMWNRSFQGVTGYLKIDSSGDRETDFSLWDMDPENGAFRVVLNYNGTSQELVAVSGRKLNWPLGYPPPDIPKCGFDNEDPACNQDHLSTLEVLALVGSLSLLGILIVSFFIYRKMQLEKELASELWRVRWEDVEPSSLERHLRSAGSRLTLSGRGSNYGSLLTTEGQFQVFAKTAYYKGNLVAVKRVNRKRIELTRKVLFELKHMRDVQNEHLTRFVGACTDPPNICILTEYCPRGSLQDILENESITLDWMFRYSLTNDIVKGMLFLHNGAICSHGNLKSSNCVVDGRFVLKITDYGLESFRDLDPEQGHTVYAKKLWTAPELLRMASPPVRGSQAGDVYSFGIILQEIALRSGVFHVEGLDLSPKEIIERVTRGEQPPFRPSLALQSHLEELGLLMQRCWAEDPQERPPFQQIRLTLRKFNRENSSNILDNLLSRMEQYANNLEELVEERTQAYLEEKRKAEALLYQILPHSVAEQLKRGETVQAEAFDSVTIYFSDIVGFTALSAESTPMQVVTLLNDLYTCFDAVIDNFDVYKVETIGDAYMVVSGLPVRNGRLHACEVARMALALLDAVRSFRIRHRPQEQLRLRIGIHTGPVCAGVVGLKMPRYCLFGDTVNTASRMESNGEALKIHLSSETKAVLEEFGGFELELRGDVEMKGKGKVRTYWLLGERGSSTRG
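HEK293 cells stably expressing human Npr1 and cGMP GloSensor pGS-40F, loaded 2 h with 2% GloSensor reagent, given compound 30 min at room temperature. Luminescence read before and 20 min after 0.1 nM hNppA.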
The depositor's hits bear a star; u = inconclusive; & = joins results of further samples; [ ] = dose if it differs, or a comment. % is scaled to controls: 0 for no effect and ±100 for the full control effect; potency is read from the fitted curve at half-maximal effect.

No.	Molecule	hNpr1 antagonist
1	CCCS(=O)(=O)N1CCCN(C(=O)C2CC2)C(c2ccccc2)CC(=O)NCC1 (centres undefined)	-15%
2	O=C1COc2ccc(N3CCCC3)nc2CN1Cc1ccc(C(F)(F)F)cc1	u
3	CCc1ccccc1S(=O)(=O)N1CCN(C2(CC)CCN(C(=O)NC)C2)CC1 (centres undefined)	-3%
4	CS(=O)(=O)c1ccc(-c2cnc([C@@H]3COCCN3Cc3ccc(Cl)cc3)[nH]2)cc1	-15%[70.6 µM]
5	Cc1cc(C)n(Cc2ccc(C(=O)NCC3Cn4cccc4C(=O)N3C)o2)n1 (centres undefined)	-1%
6	O=c1[nH]c(C2CCCN(Cc3cccnc3)C2)nn1-c1ccc(Cl)cc1 (centres undefined)	0%
7	CC(C)n1cc(CN2CCc3n[nH]c(=O)n3CC2)cn1	2%
8	O=C(c1cccs1)N1CCC2(CC1)N=C(c1cccc(Br)c1)NO2	-2%

Some of the entries above in another layout.
4. CS(=O)(=O)c1ccc(-c2cnc([C@@H]3COCCN3Cc3ccc(Cl)cc3)[nH]2)cc1
  hNpr1 antagonist: -15%[70.6 µM]

6. O=c1[nH]c(C2CCCN(Cc3cccnc3)C2)nn1-c1ccc(Cl)cc1 (centres undefined)
  hNpr1 antagonist: 0%

(cont.)
No.	Molecule	hNpr1 antagonist
9	O=C(c1ccc(CC2CCN(C(=O)C3CCCO3)CC2)cc1)N1CCOCC1 (centres undefined)	-2%
10	O=C(c1cnc2ccccn2c1=O)N1CC(=O)N(C2CCCCC2)CC(OCc2ccccc2)C1 (centres undefined)	-1%
11	COc1ccc(CC(=O)N2CCCC(c3ccc(C(=O)O)cc3)C2)c(OC)c1 (centres undefined)	3%
12	Cc1ccc(-c2nnc([C@H]3CCN(C(=O)c4ccccc4)C3)o2)cc1	-7%[70.6 µM]
13	COc1ccc(CCNC(=O)Cn2ccn3nc4c(c3c2=O)CCCCC4)cc1OC	9%
14	CCN(Cc1ccccc1)C(=O)C1CCCCC(=O)N1C (centres undefined)	5%
15	COc1ccc(-c2noc(CC3CCN(C(=O)COc4cccc(C)c4)CC3)n2)cc1	16µM*
16	CCC1(N2CCN(C(=O)c3ccccc3OC(F)(F)F)CC2)CCN(S(C)(=O)=O)C1 (centres undefined)	0%
17	CN(C)c1nccnc1OC1CCN(S(=O)(=O)Cc2ccccc2)C1 (centres undefined)	-1%
18	OC1(CNc2cc(C(F)(F)F)nc(N3CCCC3)n2)CCCNCC1 (centres undefined)	-3%
19	CC1(C)CN(C(=O)c2cnc(N3CCOCC3)nc2)C[C@]1(C)O	0%
20	CC(C)C(NC(=O)c1cn(C2CCC(N)CC2)nn1)c1nc(C2CC2)no1 (centres undefined)	10%
21	CCC(C)NC(=O)c1ccc2c(c1)CC(=O)N2Cc1ccccc1 (centres undefined)	-14%
22	c1ccc(C(CCn2cncn2)n2ccnc2-c2cc3n(n2)CCNC3)cc1 (centres undefined)	1%
23	COCCN1CCCN(C(=O)c2cccc(F)c2)c2ccccc21	-9%
24	CS(=O)(=O)N1CCC(OC2CCN(S(=O)(=O)c3ccccc3)CC2)CC1	-15%

Three entries from above, arranged by molar mass, smallest number first:
No.	Molecule	hNpr1 antagonist
23	COCCN1CCCN(C(=O)c2cccc(F)c2)c2ccccc21	-9%
18	OC1(CNc2cc(C(F)(F)F)nc(N3CCCC3)n2)CCCNCC1 (centres undefined)	-3%
17	CN(C)c1nccnc1OC1CCN(S(=O)(=O)Cc2ccccc2)C1 (centres undefined)	-1%

Continued.
No.	Molecule	hNpr1 antagonist
25	CCc1nc2c(c(-c3ccc(O)cc3)n1)CN(Cc1ccccc1)CCC2	7%
26	CC(C)c1nc(CCn2cc(-c3cncnc3)nn2)cs1	-5%
27	Cc1cc(C(=O)N2CCCCCC2CN2CCC(C)CC2)nn1C (centres undefined)	-3%
28	O=C(NC1CCCN(c2cc(-c3ccccc3)[nH]n2)C1)c1cccc2[nH]ccc12 (centres undefined)	-21%
29	COc1ccc(NC(=O)Cc2c[nH]c3ncc(-c4cnn(C)c4)cc23)cn1	-1%[70.6 µM]
30	O=C(c1ccccc1)N1CCC2(CC1)CC(N(Cc1ccccc1)C1CC1)CCO2 (centres undefined)	4%
31	O=C(Nc1ccc([C@@H](O)[C@H]2COCC(=O)N2Cc2cccnc2)cc1)c1ccccc1	4%[70.6 µM]
32	CCN1C(=O)C2(CCN(C(=O)CC(C)C)CC2)c2ccccc21	2%
33	CC(C)Oc1cccc2c1c(NC(=O)C1CCOCC1)nn2C	0%
34	COc1cccc(CNC(=O)CN2C(=O)NC3(CCS(=O)(=O)CC3)C2=O)c1	1%
35	CC(C)CNC(=O)N1CCCC(c2nc(C(C)C)no2)CCNC(=O)CC1 (centres undefined)	4%
36	COc1ccc(C(=O)N[C@@H]2CCC[C@@H]2C(=O)N2CCC(Cc3ccccc3)CC2)cc1	-3%
37	COc1ccc(-c2nnc3n2CCN(C(=O)Cc2cccc(Cl)c2)C3)cc1	-9%
38	CCc1nc(-c2c3n(c(=O)n(Cc4ccc(C)cc4)c2=O)CCCC3)no1	2%
39	CN[C@@H](CO)C(=O)N1CCC(c2cc(Cc3ccccc3)[nH]n2)CC1	0%
40	CC(C)c1noc(-c2ccn3c(CNC(=O)c4ccc(F)c(Cl)c4)nnc3c2)n1	0%

In another format: two of the compounds above.
(35) CC(C)CNC(=O)N1CCCC(c2nc(C(C)C)no2)CCNC(=O)CC1 (centres undefined)
- hNpr1 antagonist: 4%

(34) COc1cccc(CNC(=O)CN2C(=O)NC3(CCS(=O)(=O)CC3)C2=O)c1
- hNpr1 antagonist: 1%

Continuation:
No.	Molecule	hNpr1 antagonist
41	CCc1nc2c(=O)n(CC(=O)NCc3ccc4c(c3)OCO4)nc(C)c2s1	3%
42	COCCN1Cc2[nH]nc(-c3ccc(OC)c(OC)c3)c2CC1=O	-3%[70.6 µM]
43	CS(=O)(=O)N1CCCC(C(=O)N2CCOCC2)CCNC(=O)CC1 (centres undefined)	-1%
44	O=C(Nc1cc(F)c(F)c(F)c1)N1CC2CC(C1)[C@H]1CCCC(=O)N1C2 (some centres undefined)	-4%
45	COc1ccc(-c2ccc3c(n2)CN(C)C(=O)CO3)cc1	u
46	Cc1cccc(C(=O)N2CCOc3ccc(CCC(N)=O)cc3C2)c1	1%
47	O=C(NCc1ccccc1F)c1nc2sccn2c1Br	3%
48	COc1ccccc1CCC(=O)N1CCC(Cc2nc(-c3ccc(F)cc3)no2)CC1	u
49	O=C(c1ccco1)N1CCN(C(=O)c2nnn3c2COC(c2ccccc2)C3)CC1 (centres undefined)	-21%
50	COc1ccc(C(=O)N2[C@@H]3CC[C@H]2CC(NC(=O)c2ccncc2)C3)c(OC)n1 (some centres undefined)	4%
51	CC(C)(C)c1ccc(C(=O)N2CCC3(CC2)N=C(c2ccccc2)NO3)cc1	u
52	O=C(NCc1ccccn1)c1ccc2c(c1)n(Cc1cccc(F)c1)c(=O)c1ccnn12	-1%
53	c1cc(-c2ccc(CN3CCC4(CCNCC4)C3)o2)[nH]n1	5%
54	COCC(=O)N[C@H]1CCN(C(=O)COC)[C@H](C(=O)N[C@@H](Cc2cccs2)C(N)=O)C1	15%
55	COc1ccc(Cc2nc3nccc(-c4ccc5c(c4)OCCCO5)n3n2)cc1	0%
56	COCCNC(=O)C1COC2(CCC(C)CC2)N1C(=O)c1ccccc1C (centres undefined)	3%
57	Cc1ccccc1-c1noc(CNC(C)c2ccc(-n3cncn3)cc2)n1 (centres undefined)	1%
58	COc1ccc(CC(=O)NC2CCCc3c2[nH]c2c(Cl)cccc32)cc1 (centres undefined)	-20%
59	COC(=O)[C@@H]1Cc2ncn(Cc3ccc(OC)cc3)c2CN1C(=O)c1cccs1	0%[70.6 µM]
60	CC(C)C[C@@H](NC(=O)C1=C[C@@H](NC(=O)CC2(CC(=O)O)CCCC2)[C@@H](O)[C@H](O)C1)C(N)=O	-9%
61	CN1CCc2c([nH]c3ccccc23)C12CCN(C(=O)c1ccccn1)CC2	1%
62	COc1ccc([C@@H](NC(=O)c2scc3c2OCCO3)C2CC(O)C2)cn1 (some centres undefined)	1%
63	CCC(c1cccs1)N1C(=O)[C@H]2CN(S(=O)(=O)c3ccc(Cl)cc3)C[C@H]2C1=O (some centres undefined)	-15%
64	N#Cc1ccc(C(=O)N2CCCN(c3cc(-c4ccc(Cl)cc4)[nH]n3)CC2)cc1	u
65	CC(C)[C@H]1CN(CCS(C)(=O)=O)C[C@@H]1NC(=O)CCn1cncn1	0%
66	CCNC(=O)c1coc(COc2ccc3c(c2)C(c2cccc(F)c2)N(C(=O)C(C)C)CC3)n1 (centres undefined)	-10%
67	Cc1ccc(-c2cc3c(=O)n(CCNC(=O)Cc4cccs4)ccn3n2)cc1C	-19%
68	CCN1CCN(CC(=O)N2C[C@@H](C(=O)O)[C@H](c3ccccc3OC)C2)CC1	3%
69	COc1ccccc1-c1nnc([C@H]2CCN(CC(C)C)C2)o1	1%[70.6 µM]
70	COCCNC(=O)C1(C)CN(Cc2ccccc2)Cc2ccc(N3CCOCC3)nc21 (centres undefined)	1%[70.6 µM]
71	CC1Oc2ccc(NC(=O)c3ccc(F)cc3F)cc2CN(C2CCCc3ccccc32)C1=O (centres undefined)	-1%
72	Cc1ccc(C(=O)NC(C(=O)N2CCCCC2)C2CCN(C(=O)c3ccc4c(c3)OCO4)CC2)cc1 (centres undefined)	-7%
73	CC(C)c1noc(-c2cn(C3CCN(C(=O)c4ccsc4)CC3)nn2)n1	-14%
74	CCCCN(C)C(=O)c1cn2ccnc(-c3ccccc3)c2n1	4%
75	O=C(c1ccc(Br)cc1)N1CCc2[nH]nc(C(=O)N3CCOCC3)c2C1	1%
76	COCCn1c(C)cnc1CC1CCN(C(=O)c2c[nH]c3ccccc23)CC1	3%
77	O=C(NC[C@H]1COCc2nc3cc(F)ccc3n21)C1CC1	4%[70.6 µM]
78	Cc1c[nH]c(CN2CCn3nc(C(O)Cc4ccccc4)cc3C2)c(C)c1=O (centres undefined)	0%
79	CN(CCc1ccccc1)C1(C(=O)N2CCCC(C#N)C2)Cc2ccccc2C1 (centres undefined)	-16%
80	O=C(NC[C@@H]1CCCN1)c1ccc(S(=O)(=O)NCc2ncc[nH]2)cc1	-2%
81	CCNC(=O)Cc1c[nH]c2ncc(-c3ccccc3C)cc12	18µM*
82	CCC(C)NC(=O)C(NC(=O)c1cccc(OC)c1)C1CCN(C(=O)CC(C)(C)C)CC1 (centres undefined)	2%
83	Fc1ccc(-c2ccnc3nc(C4CCCO4)nn23)cc1 (centres undefined)	-6%
84	CCN1CC(C(=O)N2CCCC(c3ccccc3)(c3ccccc3)C2)CC1=O (centres undefined)	-2%
85	CCc1ccccc1NC(=O)NCC1CCOCC1	-1%
86	COc1ccc(-c2noc(C(=O)O)c2[C@@H](C)NC(=O)c2ccc3c(c2)OCO3)cc1	-10%[70.6 µM]
87	O=C1CC(c2nc(-c3cn4ccccc4n3)no2)CN1Cc1ccncc1 (centres undefined)	7%
88	Brc1ccc(CN2CCC(c3nc4ccncc4[nH]3)C2)cc1 (centres undefined)	11µM*

Results in sequence from the entries so far.
Compounds 83 to 88 in hNpr1 antagonist: -6%, -2%, -1%, -10%[70.6 µM], 7%, 11µM*

The list continues.
No.	Molecule	hNpr1 antagonist
89	CCNC(=O)N1CCC(Oc2ccccc2)C1 (centres undefined)	-13%
90	CC(C)CCC(=O)N1CC(C(=O)N(C)C)C2(CCOCC2)C1 (centres undefined)	6%
91	CCc1nc2ccccc2n1CCC(=O)N[C@H]1CCOC[C@H]1C1CCOCC1	2%
92	O=C(NCCCN1CCCCC1)C1CCN(C(=O)N2CC3CC(C2)[C@H]2CCCC(=O)N2C3)CC1 (some centres undefined)	1%
93	O=C(c1cn[nH]c1-c1ccccc1)N1CCC2(CC1)CC(O)CCO2 (centres undefined)	-4%
94	COCc1noc([C@@H]2CC(F)(F)CN2C(=O)c2coc(C)n2)n1	0%
95	Cc1cncc(C(=O)N2CC[C@@H](c3ccc4ccccc4c3)[C@H](O)C2)c1	-2%
96	COc1ccc(C(=O)N[C@H](C)c2onc(-c3ccc(F)cc3)c2C(=O)O)cc1	3%[70.6 µM]
97	C[C@@]12CO[C@@H](Cc3ccccc3)O[C@@H]1CC[C@]1(C)C2CC[C@@H](O)[C@H]1CC(=O)NCc1ccco1 (some centres undefined)	-1%
98	O=C(NC1C[C@H]2CC[C@@H](C1)N2C(=O)C1CCCCCC1)c1ccncc1 (some centres undefined)	-2%
99	COc1cccc(C(=O)N2CCCC(c3nn[nH]n3)C2)c1 (centres undefined)	-7%
100	O=C(c1ccc(CSc2ncccn2)o1)N1CCC2(CCOCC2)CC1	0%
101	CC(C)c1nc(C2Cc3ccccc3N2C(=O)NCc2ccco2)no1 (centres undefined)	8%
102	FC(F)(F)c1ccnc(-c2cc(NCc3ccccn3)nc3[nH]ccc23)c1	8%
103	O=C(c1ccccc1F)N1CCC(N2CCCNC2=O)CC1	25%&5%[70.6 µM]
104	Cc1ccccc1CN1CCC2(CC1)OCCN(Cc1ccccc1)C2=O	-3%[70.6 µM]
105	O=C(C1CC1)N1CCC(Cc2nc(-c3ccc(F)cc3)no2)CC1	u
106	COc1ccc(CC(=O)N2CC[C@@H](CC(=O)O)[C@@H](CCN(C)c3ccccc3)C2)cc1	-3%[70.6 µM]
107	O=C(c1ccccc1F)N1CCC(N2CC3CC(C2)[C@H]2CCCC(=O)N2C3)CC1 (some centres undefined)	-4%
108	O=C1CCN(C(=O)Cc2ccccc2)CCCC(c2nc(-c3cnccn3)no2)CCN1 (centres undefined)	5%
109	COc1cccc(-c2cc(C3CCN(C(=O)Nc4cccc(C)c4)CC3)[nH]n2)c1	-23%
110	Cc1ccc2[nH]c(=O)c(CCC(=O)O)cc2c1	3%

Not all compounds are listed (hit frequency here may not be typical).
